Compound activity: PubChem, several laboratories
PABP polyA inh = blocks human PABP binding to poly(A) RNA; P11940; fluorescence polarization; inhibition, % at 35 µM; 290,000 tested, 1% active; AID 2014;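 active means 50% or more with normal probe brightness, or confirmed in later tests; inconclusive means above 50% with abnormal brightness, or retests that disagree; inactive means below 50% or failed in later tests; about a fifth of its hits are not listed in these tables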;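 further: calls also rest on retests at 20 µM and on dose response follow-up; controls were probe without protein and protein plus probe with vehicle; some compounds called inactive have numbers as strong as hits; many hits fall short of the cut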
Target sequence (P11940 whole entry, looked up): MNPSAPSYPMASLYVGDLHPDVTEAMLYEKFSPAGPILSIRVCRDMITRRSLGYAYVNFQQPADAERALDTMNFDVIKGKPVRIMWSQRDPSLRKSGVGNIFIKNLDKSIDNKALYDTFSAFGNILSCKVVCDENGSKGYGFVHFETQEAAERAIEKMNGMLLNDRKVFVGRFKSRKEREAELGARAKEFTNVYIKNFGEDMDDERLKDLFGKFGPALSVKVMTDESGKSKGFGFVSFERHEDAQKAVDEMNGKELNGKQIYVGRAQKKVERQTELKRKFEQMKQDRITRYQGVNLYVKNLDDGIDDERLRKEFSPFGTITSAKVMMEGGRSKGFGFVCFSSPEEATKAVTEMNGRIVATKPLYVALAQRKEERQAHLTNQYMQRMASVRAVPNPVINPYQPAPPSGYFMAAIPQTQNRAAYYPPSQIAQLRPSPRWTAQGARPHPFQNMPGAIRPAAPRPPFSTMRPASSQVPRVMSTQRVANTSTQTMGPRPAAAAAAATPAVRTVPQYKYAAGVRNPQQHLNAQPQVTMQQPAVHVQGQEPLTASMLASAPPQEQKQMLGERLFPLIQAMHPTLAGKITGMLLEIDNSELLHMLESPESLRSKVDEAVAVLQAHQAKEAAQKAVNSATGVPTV
UUG fidelity = modulators of start codon recognition fidelity in yeast; S. cerevisiae UUG-firefly luciferase reporter, luminescence/redox ratio; activity score, % at 18.7 µM; 350,000 tested, 0.13% active; AID 602363;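 active means replicate mean at a twofold rise or more, about +100% in these data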;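 further: firefly luciferase made from a UUG start codon reports start codon fidelity; reporter light over untreated wells divided by growth signal over untreated wells; some hits fall short of that in this replicate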
eIF4H FP inh = inhibitors of RNA binding by human eIF4H; eIF4H fluorescence polarization binding assay; inhibition, % at 35 µM; 290,000 tested, 0.94% active; AID 2012;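 active means 50% or more with normal probe brightness, or confirmed in later tests; inconclusive means above 50% with abnormal brightness, or retests that disagree; inactive means below 50% or failed in later tests; about a fifth of its hits are not listed in these tables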;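 further: calls also rest on retests at 20 µM and on dose response follow-up; 0% = protein and probe with vehicle and 100% = probe without protein; strong numbers were not always called active; many hits fall short of the cut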
MT1-MMP act inh = blocks activation of human MT1-MMP; GFP/RFP ratio change, % at 20 µM; 360,000 tested, 0.061% active; P50281; HT1080 RFP-PRO-GFP cells, GFP/RFP ratio fluorescence, overnight; percent of plate control window, DMSO zero; AID 651647;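 active means GFP/RFP ratio change of at least 30% with cell ATP level not reduced by more than half and red fluorescence within 50% of control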; further: strong numbers were not always called active
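Assay system: RFP-PRO-GFP reporter HT1080 cells; read-out basis: GFP/RFP fluorescence ratio; benchmarks: DMSO wells and RFP-L50D-GFP cells; doses: 20 µM single dose, 1% DMSO; schedule: overnight cell settling, then overnight compound exposure, 37 °C, 5% CO2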
CSC inhib = blocks cancer stem cells | cancer stem cell-like cells viability, luminescence | inhibition, % at 7.5 µM | 300,000 tested, 1.1% active | AID 2717;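 active means mean at 75% or more and at least half the replicates too; inconclusive means mean and replicates disagree; tested in HMLE shEcad cells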;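 further: 0% = median of negative and 100% = median of positive control wells; the first replicate is given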
HIV Env fusion = inhibitors of HIV Env-mediated cell fusion; 360,000 tested, 1.1% active; inhibition, % at 12.3 µM; HeLa-JRFL Env/CEM21 cell fusion, luciferase; AID 651610;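 active means mean replicate inhibition score of at least 50 and every replicate individually at or above 50; inconclusive means only one of the two criteria met; inactive means mean below 50 and not all replicates reaching 50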;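 further: 0% = plate neutral controls and 100% = maraviroc near 300 nM; one replicate is shown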
Rce1 inhib = yeast Ras-converting enzyme inhibition; Q03530; 290,000 tested, 0.27% active; calls only; yeast membranes, quenched prenylated peptide cleavage fluorescence; AID 2563;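 active means fall in fluorescence gain of 50% or more versus controls, with final raw signal at or below 3038400; inconclusive means same 50% fall but final raw signal above 3038400; inactive means fall in fluorescence gain under 50%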;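 further: plate controls were neutral control wells for no effect and wells lacking membranes for full effect; tested at 10 µM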
eIF4H FP inh retest = further read-out of eIF4H FP inh, marked with its call; inhibition, %; compound at 20 µM; confirmation average;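 mean of two retest wells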
PABP polyA inh retest = also measured in PABP polyA inh; calls as there; inhibition, %; compound at 20 µM; confirmation repeats;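 mean of two retest wells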
MT1-MMP act inh RFP = also measured in MT1-MMP act inh; calls as there; RFP signal change, %; measured here: RFP expression control read;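 0 = vehicle wells; hits needed this value within 50% of zero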
Starred values were filed as active, the others as inactive.

Start of the data: the first 2 compounds as a preview:
How did CCOC(=O)c1sc2nccc(OC)c2c1N=CN(C)C do in these assays?
PABP polyA inh: 30; eIF4H FP inh: -2; MT1-MMP act inh: -2; CSC inhib: -14; HIV Env fusion: 8; Rce1 inhib: inactive; MT1-MMP act inh RFP: 3

How did OC[C@@H]1CN(Cc2ccc(Cl)cc2)C[C@H](n2cnc3c(N4CCOCC4)ncnc32)O1 do in these assays?
UUG fidelity: 12; MT1-MMP act inh: 0; HIV Env fusion: -1; MT1-MMP act inh RFP: 3

This part in full (from the top)
How did CCOC(=O)c1sc2nccc(OC)c2c1N=CN(C)C do in these assays?
PABP polyA inh: 30; eIF4H FP inh: -2; MT1-MMP act inh: -2; CSC inhib: -14; HIV Env fusion: 8; Rce1 inhib: inactive; MT1-MMP act inh RFP: 3

How did OC[C@@H]1CN(Cc2ccc(Cl)cc2)C[C@H](n2cnc3c(N4CCOCC4)ncnc32)O1 do in these assays?
UUG fidelity: 12; MT1-MMP act inh: 0; HIV Env fusion: -1; MT1-MMP act inh RFP: 3

What do the screens show for `CC(=O)Cn1nnc(-c2ccc(C(F)(F)F)cc2)n1`?
PABP polyA inh: 11; eIF4H FP inh: 8; MT1-MMP act inh: -1; CSC inhib: -3; HIV Env fusion: 4; Rce1 inhib: inactive; MT1-MMP act inh RFP: -4

What do the screens show for `CC(=O)N/C(=C/c1ccc2c(c1)OCO2)C(=O)NC(Cc1ccccc1)C(=O)O` (stereo unspecified)?
UUG fidelity: -12; MT1-MMP act inh: -1; CSC inhib: -4; HIV Env fusion: 4; Rce1 inhib: inactive; MT1-MMP act inh RFP: 0

What do the screens show for `Cc1ccc(C)c(OCC(=O)OCC(=O)Nc2c(C)nn(-c3ccccc3)c2C)c1`?
MT1-MMP act inh: 4; CSC inhib: 12; HIV Env fusion: 8; Rce1 inhib: inactive; MT1-MMP act inh RFP: 1

What do the screens show for `CN(C)Cc1c(C(=O)N/N=C/c2ccncc2)nnn1-c1nonc1N`?
PABP polyA inh: -6; UUG fidelity: -6; eIF4H FP inh: -4; MT1-MMP act inh: 2; CSC inhib: 0; HIV Env fusion: 12; Rce1 inhib: inactive; MT1-MMP act inh RFP: 3

Results for COc1cc2c(cc1OC)C(c1cc([N+](=O)[O-])ccc1O)NCC2 (stereo unspecified) ?
PABP polyA inh: 1; eIF4H FP inh: 0; MT1-MMP act inh: 4; CSC inhib: -17; HIV Env fusion: 9; Rce1 inhib: inactive; MT1-MMP act inh RFP: 4

What do the screens show for `O=C(NCCc1c[nH]c2ccccc12)c1ccc2nc[nH]c2c1`?
UUG fidelity: 4; MT1-MMP act inh: -2; CSC inhib: 12; HIV Env fusion: -2; Rce1 inhib: inactive; MT1-MMP act inh RFP: 2

How did CCCCN(C(=O)c1sc2nc3n(c(=O)c2c1C)CCC3)c1c(N)n(CC(C)C)c(=O)[nH]c1=O do in these assays?
UUG fidelity: 6; MT1-MMP act inh: -1; HIV Env fusion: -10; MT1-MMP act inh RFP: 0

How did COc1ccc2sc(-c3ccc(N(C)C)cc3)c(C#CC(C)(C)O)c2c1 do in these assays?
UUG fidelity: -15; MT1-MMP act inh: 3; CSC inhib: 66; HIV Env fusion: -16; MT1-MMP act inh RFP: -4

What do the screens show for `CC(C)(C)C(=O)Nc1nnc(SCC(=O)NC2CC2)s1`?
PABP polyA inh: -2; UUG fidelity: 7; eIF4H FP inh: -6; MT1-MMP act inh: -3; CSC inhib: -10; HIV Env fusion: -7; Rce1 inhib: inactive; MT1-MMP act inh RFP: -1

How did O=C(Nc1cc(=O)[nH]c2ncnn12)c1ccccc1F do in these assays?
PABP polyA inh: 8; UUG fidelity: -13; eIF4H FP inh: 1; MT1-MMP act inh: 6; CSC inhib: -26; HIV Env fusion: -59; Rce1 inhib: inactive; MT1-MMP act inh RFP: 6

How did OC[C@@H]1CN(Cc2cccs2)C[C@H](n2cnc3c(Nc4ccccc4)ncnc32)O1 do in these assays?
UUG fidelity: -2; MT1-MMP act inh: 1; HIV Env fusion: -11; MT1-MMP act inh RFP: 0

Results for Cc1nn(-c2ccccc2)c(Cl)c1C(=O)OCC(=O)N(C)c1c(N)n(Cc2ccccc2)c(=O)[nH]c1=O ?
MT1-MMP act inh: -3; CSC inhib: -8; HIV Env fusion: -3; Rce1 inhib: inactive; MT1-MMP act inh RFP: 1

What do the screens show for `C/C(=N/NC(=O)c1nnn(-c2nonc2N)c1CSc1ccc(Cl)cc1)c1ccncc1`?
UUG fidelity: -30; MT1-MMP act inh: 1; HIV Env fusion: 7; MT1-MMP act inh RFP: 1

Results for Cc1cccc(NC(=S)N/N=C/C(C)c2ccccc2)c1C (stereo unspecified) ?
PABP polyA inh: 1; eIF4H FP inh: -5; MT1-MMP act inh: 1; CSC inhib: -9; HIV Env fusion: 6; Rce1 inhib: inactive; MT1-MMP act inh RFP: 2

Results for Cc1ccc(-c2ccc(S(=O)(=O)N3CCCC3)cc2)cc1 ?
PABP polyA inh: 4; eIF4H FP inh: 2; MT1-MMP act inh: 2; CSC inhib: 5; HIV Env fusion: -4; Rce1 inhib: inactive; MT1-MMP act inh RFP: 2

How did COc1ccccc1N(C)S(=O)(=O)c1ccc(C(=O)Nc2cc(F)ccc2C)cc1 do in these assays?
UUG fidelity: 0; MT1-MMP act inh: 3; CSC inhib: 1; HIV Env fusion: -60; MT1-MMP act inh RFP: -10

How did Fc1ccc2cc(-c3cccnc3)ncc2c1 do in these assays?
UUG fidelity: -5; MT1-MMP act inh: -5; CSC inhib: -9; HIV Env fusion: -33; MT1-MMP act inh RFP: 1

How did O=C(/C=C/c1ccc(F)cc1)NC(=S)Nc1ccccc1O do in these assays?
PABP polyA inh: 2; UUG fidelity: -8; eIF4H FP inh: -14; MT1-MMP act inh: 5; CSC inhib: 7; HIV Env fusion: -16; Rce1 inhib: inactive; MT1-MMP act inh RFP: 2

How did CCSc1nc2ccccc2c(=O)n1CCc1ccc(OC)c(OC)c1 do in these assays?
PABP polyA inh: -9; UUG fidelity: -10; eIF4H FP inh: -3; MT1-MMP act inh: -9; CSC inhib: 49; HIV Env fusion: 14; Rce1 inhib: inactive; MT1-MMP act inh RFP: -10

What do the screens show for `CCN(C(=O)COC(=O)C1CCN(S(=O)(=O)c2c(Cl)cccc2Cl)CC1)C1CCCCC1`?
PABP polyA inh: -1; UUG fidelity: 11; eIF4H FP inh: -11; MT1-MMP act inh: 0; CSC inhib: 37; HIV Env fusion: 4; MT1-MMP act inh RFP: 5

How did Cc1cccc(CCNC(=O)C2CCC(CNc3c(N4CCCC4)c(=O)c3=O)CC2)c1 (stereo unspecified) do in these assays?
PABP polyA inh: -4; UUG fidelity: -13; eIF4H FP inh: -12; MT1-MMP act inh: -4; CSC inhib: 1; HIV Env fusion: -13; Rce1 inhib: inactive; MT1-MMP act inh RFP: 0

Results for Oc1[nH]c2c(Cl)cc(Cl)cc2c1N=NC(=S)NCC1CCCO1 (stereo unspecified) ?
PABP polyA inh: 8; eIF4H FP inh: 22; MT1-MMP act inh: 1; HIV Env fusion: 22; Rce1 inhib: inactive; MT1-MMP act inh RFP: -11

What do the screens show for `CN(C)C(=O)c1ccccc1NC(=O)Cc1cccc2ccccc12`?
PABP polyA inh: 16; UUG fidelity: -5; eIF4H FP inh: 12; MT1-MMP act inh: -9; CSC inhib: -16; HIV Env fusion: -47; Rce1 inhib: inactive; MT1-MMP act inh RFP: 0

Results for Cc1cc(/C(N)=N/OC(=O)Nc2ccccc2)no1 ?
PABP polyA inh: 3; UUG fidelity: -2; eIF4H FP inh: -7; MT1-MMP act inh: 2; CSC inhib: 10; HIV Env fusion: -20; Rce1 inhib: inactive; MT1-MMP act inh RFP: 6

Results for CCCCNC(=O)CN1C(=O)NC2(CCOc3ccccc32)C1=O (stereo unspecified) ?
PABP polyA inh: 2; UUG fidelity: -14; eIF4H FP inh: -2; MT1-MMP act inh: -2; CSC inhib: -11; HIV Env fusion: -7; Rce1 inhib: inactive; MT1-MMP act inh RFP: 2

How did COc1ccc(NC(=O)Nc2c(SC)nsc2SC)cc1 do in these assays?
PABP polyA inh: -22; eIF4H FP inh: 2; MT1-MMP act inh: 1; CSC inhib: 3; HIV Env fusion: -23; Rce1 inhib: inactive; MT1-MMP act inh RFP: 2

How did CCC(C)N(C(=O)CCC(=O)Nc1cc(C)on1)C(C(=O)NC(C)(C)C)c1ccccc1Cl (stereo unspecified) do in these assays?
PABP polyA inh: 0; UUG fidelity: -5; eIF4H FP inh: 61; MT1-MMP act inh: -1; CSC inhib: -2; HIV Env fusion: 6; Rce1 inhib: inactive; eIF4H FP inh retest: 4; PABP polyA inh retest: 5; MT1-MMP act inh RFP: -2

How did CN(C)C(=O)CCc1nc2sc3c(c2c(=O)[nH]1)CCCC3 do in these assays?
PABP polyA inh: -2; UUG fidelity: -15; eIF4H FP inh: 1; MT1-MMP act inh: 2; CSC inhib: 1; HIV Env fusion: -132; Rce1 inhib: inactive; MT1-MMP act inh RFP: 2

Results for O=C(CNc1cccc2ccccc12)N/N=C/c1ccc(OC(=O)/C=C/c2ccco2)cc1 ?
PABP polyA inh: -4; UUG fidelity: -38; eIF4H FP inh: inconclusive; MT1-MMP act inh: -2; HIV Env fusion: 8; Rce1 inhib: inactive; MT1-MMP act inh RFP: 3

How did Cc1cnc(=O)[nH]c1SCC(=O)c1ccc(F)cc1 do in these assays?
PABP polyA inh: -8; UUG fidelity: -16; eIF4H FP inh: -4; MT1-MMP act inh: 4; CSC inhib: 5; HIV Env fusion: -26; Rce1 inhib: inactive; MT1-MMP act inh RFP: 6

What do the screens show for `CC1CCN(C(=O)COC(=O)CCC(=O)c2ccc(Cl)cc2)CC1`?
UUG fidelity: 5; MT1-MMP act inh: 2; CSC inhib: 7; HIV Env fusion: -21; MT1-MMP act inh RFP: 4

What do the screens show for `COc1cccc(CN2CCN(Cc3[nH]c4ccccc4c3C)CC2CCO)c1` (stereo unspecified)?
PABP polyA inh: -8; eIF4H FP inh: -5; MT1-MMP act inh: 2; CSC inhib: 7; HIV Env fusion: -32; Rce1 inhib: inactive; MT1-MMP act inh RFP: 1

Results for NC(=O)COC(=O)CC12CC3CC(CC(Br)(C3)C1)C2 ?
PABP polyA inh: -5; eIF4H FP inh: -1; MT1-MMP act inh: -2; CSC inhib: -7; HIV Env fusion: 11; Rce1 inhib: inactive; MT1-MMP act inh RFP: 1

Results for Cc1c(NS(=O)(=O)c2ccc(N=NN(C)C)cc2)c(=O)n(-c2ccccc2)n1C ?
PABP polyA inh: -4; UUG fidelity: -6; eIF4H FP inh: -3; MT1-MMP act inh: 2; CSC inhib: -1; HIV Env fusion: -12; Rce1 inhib: inactive; MT1-MMP act inh RFP: 3

What do the screens show for `CCCC(=O)Nc1cccc(NC(=O)c2ccc([N+](=O)[O-])cc2Cl)c1`?
PABP polyA inh: 16; eIF4H FP inh: 2; MT1-MMP act inh: 3; CSC inhib: 2; Rce1 inhib: inactive; MT1-MMP act inh RFP: -1

What do the screens show for `CC1CCN(Cc2nc(Cl)c3c4c(sc3n2)CCC4)CC1`?
PABP polyA inh: 17; UUG fidelity: -19; eIF4H FP inh: 4; MT1-MMP act inh: 0; CSC inhib: 4; HIV Env fusion: -9; Rce1 inhib: inactive; MT1-MMP act inh RFP: 0

Results for Cc1cc(C)c(S(=O)(=O)c2ccccc2F)c(=O)[nH]1 ?
PABP polyA inh: -5; UUG fidelity: -15; eIF4H FP inh: -4; MT1-MMP act inh: 1; CSC inhib: -13; HIV Env fusion: 29; Rce1 inhib: inactive; MT1-MMP act inh RFP: 2

An unsorted share of the library (roughly 3% active in at least one column).
